Compound activity: PubChem BioAssay, National Center for Advancing Translational Sciences (NCATS)
miR-21 reporter: raises the signal of a miR-21 reporter; Potency, µM (titrated, usually from 38.3 µM), for inactives: at the highest dose reporter change, positive = more light; AID 2288; HeLa miR-21 FLuc reporter, luciferase, 48 h; 340,000 tested, under 10 active; active = well fitted rising curve with a large enough effect; inconclusive = small, poorly fitted or top-dose-only effect; inactive = no such curve, though single readings can be large or run the other way;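 also: % of control where 0% means no effect; miR-21 action dims this reporter so a rising signal means less miR-21 action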
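HeLa cells stably expressing CMV-driven firefly luciferase with a downstream miR-21 binding sequence, endogenously expressing miR-21, were treated with titrations (up to about 40uM final) for 48 hours at 37 degree Celsius. Luciferase luminescence was read after lysis.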
Numbers without * were called inactive; ? = inconclusive. An excerpt (hit frequency here may not be typical).

miR-21 reporter | SMILES
1% | COc1ccc(S(=O)(=O)N(CCc2ccccc2)CC(=O)NCc2ccc(C)cc2)cc1
-3% | COc1cc(-c2noc(-c3ccc(NC4CCCC4)c([N+](=O)[O-])c3)n2)cc(OC)c1OC
-7% | COc1ccc(-c2noc(CN(C(=O)c3cc(OC)c(OC)cc3OC)C(C)C)n2)cc1
-18% | COc1cccc(CC(=O)Nc2ccc(-c3nc4ccccc4s3)cc2Cl)c1
-6% | O=C(Nc1cccc(Br)c1)N1CCC(CN2CCCCC2)CC1
-2% | CCN1C(=NCCCCO)N[C@@H](c2ccccc2)C(C(=O)OC)=C1C
-9% | O=c1c2ccccc2n2c(-c3ccc(Cl)cc3)nnc2n1CCc1ccccc1
-2% | Cc1ccccc1NC(=O)c1ccc(F)c(S(=O)(=O)N(C)C2CCCCC2)c1
0% | Cc1cc(Oc2nc3ccccn3c(=O)c2/C=C(\C#N)c2nc3ccccc3s2)ccc1Cl
-32% | Cc1cccc(NC(=O)c2ccc3nc(C(C)C)oc3c2)c1C
-4% | CC1CCCN(c2cc3c(cc2F)c(=O)c(S(=O)(=O)c2cccc(Cl)c2)cn3C)C1 (stereo not given)
-1% | COc1cccc2c1cc1c(=O)n(CC(=O)O)nc(C)n12
-23% | CCC(C(=O)NCCc1ccccc1)n1nc(C)c2sc3ccccc3c2c1=O (stereo not given)
-2% | Cc1ccc(CCNC(=O)Cn2c(-c3cccs3)cc3ccccc32)cc1
-7% | O=C(CCn1c(=O)c2cccn2c2cccnc21)N1CCN(c2ccc(Cl)cc2)CC1
4% | CCOC(=O)c1sc2ccccc2c1S(=O)(=O)N1CCN(c2cc(C)ccc2C)CC1
2% | CCCc1cc(=O)oc2c3c(c(Cl)cc12)OCN(CCCO)C3
-6% | CCOC(=O)c1sc2ncn(CC(=O)Nc3cc(Cl)ccc3C)c(=O)c2c1C
7% | CCOc1ccc(NC(=O)CSc2nc(-c3cccs3)cc(C(F)(F)F)c2C#N)cc1
5% | O=C(Nc1ccc(OC(F)(F)F)cc1)c1nc2ccccc2nc1N1CCCCC1
0% | CCOc1ccc(CNC(=O)C2CCCCN2S(=O)(=O)c2ccc(F)cc2)cc1OC (stereo not given)
2% | Cc1cccc(C)c1-n1ncc(C(=O)N2CCN(c3ccccn3)CC2)c1C1CCN(C(=O)OC(C)(C)C)CC1
-3% | COc1ccc(Nc2nc3c(S(=O)(=O)c4ccccc4)nnn3c3ccc(Cl)cc23)cc1OC
? | Cc1ccc(-n2ncc3c(N4CCCCC4)ncnc32)cc1
1% | O=C(NC1CCCC1)c1ccc2c(c1)N(Cc1ccccc1Cl)C(=O)c1ccccc1S2
-1% | O=C(CN1C(=O)C2(SCC(=O)N2c2cccc(F)c2)c2ccccc21)NCc1ccccc1Cl (stereo not given)
-4% | Cc1ccc(-n2ncc(C(=O)NCCN3CCN(C)CC3)c2C2CCN(C(=O)OC(C)(C)C)CC2)cc1
0% | COc1ccc(Nc2cc(C(=O)NCc3cccs3)c3ccccc3n2)cc1
-1% | CCOc1ccc(C2c3c(oc4cc(C)c(C)cc4c3=O)C(=O)N2c2ccccn2)cc1 (stereo not given)
-31% | Cc1ccccc1-c1noc(-c2ccc(NCc3ccco3)c([N+](=O)[O-])c2)n1
0% | Cc1ccc(S(=O)(=O)c2cn(CC(=O)Nc3ccccc3C)c3cc4c(cc3c2=O)OCO4)cc1
13% | Cn1c(=O)n(Cc2ccccc2Cl)c(=O)c2c1nc1n2CCN1c1ccccc1
-2% | CCCc1nnc(NC(=O)Cc2coc3c(C)c(C)ccc23)s1
0% | COc1cccc(C(c2sc3nc(-c4ccco4)nn3c2O)N2CCN(C)CC2)c1 (stereo not given)
2% | CCc1ccccc1NC(=O)CN1C(=O)COc2ccc(S(=O)(=O)Nc3ccccc3)cc21
-2% | CC(C)c1ccc(NC(=O)Cn2c(=O)n(Cc3nc(-c4ccccc4)no3)c(=O)c3cc4c(cc32)OCO4)cc1
? | CCOc1ccccc1N(CC)C(=O)Cn1ncc2c([nH]c3ccccc32)c1=O
-1% | Cc1cccc(C)c1-n1ncc(C(=O)NCCN2CCOCC2)c1C1CCN(C(=O)OC(C)(C)C)CC1
1% | COc1ccc(CCNC(=O)CCCn2c(=O)c3ccccc3n(CC(=O)Nc3cccc(C)c3)c2=O)cc1OC
3% | CCS(=O)(=O)c1nc(S(=O)(=O)c2ccc(C)cc2)c(NCc2ccc(Cl)cc2)s1
-6% | CCOC(=O)c1cc(C)n(CC2CCC(C(=O)Nc3ccc(OC)c(OC)c3)CC2)c1C (stereo not given)
? | CC(=O)Nc1ccc(NC(=O)CCCc2nc(-c3ccc(C(C)(C)C)cc3)no2)cc1
1% | CCOc1ccc(CNS(=O)(=O)c2ccc3[nH]c(=O)ccc3c2)cc1
-1% | Cc1oc2ncn(C)c(=O)c2c1C(=O)N1CCN(c2ccccc2)CC1
-5% | COc1ccccc1N1CCN(C(=O)Cn2c(=O)n3nc(-c4cccc(C)c4)nc3c3ccccc32)CC1
-49% | Cc1nn(CCCC(=O)Nc2cccc(F)c2)c(=O)c2c1sc1ccccc12
-1% | COc1ccc(-n2c(=O)c3c(c4cc(OC)ccc4n3C)n(Cc3cccc(C)c3)c2=O)cc1
-1% | COc1ccccc1Cn1c(CNS(=O)(=O)c2ccc3c(c2)CCCC3)nc2cccnc21
-2% | Cc1ccc(Cn2c(=O)n(-c3ccc(C)cc3)c(=O)c3c2c2cc(C)ccc2n3C)cc1
-5% | O=C(NCCc1ccccc1)c1nnc(Cc2cccc(F)c2)o1
-2% | Cc1ccc(-c2nc(SCC(=O)NCc3ccco3)c3c(=O)n(C)c(=O)n(C)c3n2)cc1
? | COc1cc(OC)c(NC(=O)CSc2nc3ccncc3[nH]2)cc1Cl
27% | CSc1ccc(/C=C/c2nc3ccccc3n2S(=O)(=O)c2ccc(F)c(C)c2)cc1
-2% | Cc1ccccc1OCC(=O)Nc1ccccc1C(=O)OCc1cc(=O)n2ccsc2n1
18% | Cn1nnnc1SCCNCc1ccccc1OCc1ccc(Cl)cc1Cl
0% | CCOc1cc(CN2CCN(S(=O)(=O)c3ccc(C)cc3)CC2)ccc1OC
-4% | COc1ccc(NC(=O)c2c(NC(=O)COc3ccccc3)sc3c2CCC(C(C)(C)C)C3)cc1 (stereo not given)
? | O=C(CSc1nc(-c2ccc(F)cc2)[nH]c1-c1ccc(F)cc1)Nc1ccc2c(c1)OCCO2
-15% | Cc1cccc(N(C)c2nc3ccc(C)cc3n3nnnc23)c1
-12% | COc1ccc(-c2csc3ncnc(Nc4ccccc4)c23)cc1

Next section:
miR-21 reporter | SMILES
-4% | Cc1cc(Cl)ccc1NC(=O)CCS(=O)(=O)c1cc2c(cc1C)NC(=O)CO2
18% | Cc1ccn2cc(-c3ccc(C)c(NS(=O)(=O)c4ccc(Cl)cc4)c3)nc2c1
-1% | CCOc1ccccc1NS(=O)(=O)c1cc(-c2cnc(C3CC3)o2)ccc1C
10% | COc1ccc(CCN2C(=O)N(c3cccc(C)c3)C(=O)C2CC(=O)Nc2ccccc2)cc1OC (stereo not given)
-12% | CCC1CN(C(=O)Nc2cccc3c2CCCC3)c2cc(Cl)ccc2O1 (stereo not given)
? | Nc1ccc(N2CCN(c3ncc(C(F)(F)F)cc3Cl)CC2)c(C(F)(F)F)c1
9% | Cc1cccc(NC(=O)N2CCc3c(sc4c3CCCC4)C2c2ccc(F)cc2)c1 (stereo not given)
-2% | Cc1ccccc1CN1CCC(CNc2ncnc3onc(-c4ccc(Cl)cc4)c23)CC1
0% | O=C(NC1CCCCCC1)C1CCN(C(=O)N2CCOc3ccccc32)CC1
-17% | CCOc1ccc(NC(=O)c2c(NCc3cccs3)sc3c2CCCCC3)cc1
-8% | CCCN1Cc2cccc(C(=O)Nc3ccccc3C(=O)OC)c2C1=O
-3% | CCOC(=O)c1cc(OC(=O)c2ccc(OC)c(OC)c2)n(-c2ccccc2)n1
-7% | CCOC(=O)c1c(NC(=O)/C=C/c2ccc(C)cc2)sc(C(C)=O)c1C
-2% | COCCNC(=O)C1CCCN(S(=O)(=O)c2ccc3c(ccn3C)c2)C1 (stereo not given)
? | Cc1cc(C)cc(N2CCn3c2nc2c3c(=O)n(CCc3ccccc3)c(=O)n2C)c1
-1% | CCCCC(=O)Nc1c(C(=O)N2CCN(c3ccccc3)CC2)oc2ccccc12
-3% | C#CC(C)(CC)NC(=O)Cn1nnc(-c2ccc(OCc3ccccc3F)cc2)n1 (stereo not given)
-3% | COC(=O)c1c(C)sc(-c2c(-c3cccc(OC)c3)[nH]c3c2c(=O)[nH]c(=O)n3C)c1O
-17% | Cc1cccc(NC(=O)CSc2nc(-c3cccs3)nc3cc(=O)[nH]n23)c1
? | CC(C)c1ccc(/C=C(\C#N)c2nc(-c3ccc(O)cc3)cs2)cc1

Sorted by heavy-atom count (lowest first): 6 of the compounds above
miR-21 reporter | SMILES
-2% | COCCNC(=O)C1CCCN(S(=O)(=O)c2ccc3c(ccn3C)c2)C1 (stereo not given)
18% | Cc1ccn2cc(-c3ccc(C)c(NS(=O)(=O)c4ccc(Cl)cc4)c3)nc2c1
-3% | CCOC(=O)c1cc(OC(=O)c2ccc(OC)c(OC)c2)n(-c2ccccc2)n1
-1% | CCCCC(=O)Nc1c(C(=O)N2CCN(c3ccccc3)CC2)oc2ccccc12
? | Cc1cc(C)cc(N2CCn3c2nc2c3c(=O)n(CCc3ccccc3)c(=O)n2C)c1
-2% | Cc1ccccc1CN1CCC(CNc2ncnc3onc(-c4ccc(Cl)cc4)c23)CC1

Remaining list, next part
miR-21 reporter | SMILES
13% | Nc1nonc1-c1nc2ccccc2n1CC(=O)Nc1cccc(C(F)(F)F)c1
-2% | Cc1ccc(C)c(NC(=O)N2CCC(CN3CCOCC3)CC2)c1
2% | Cc1cccc(C)c1NC(=O)c1sc(-n2nc(C)c(Cc3ccc4c(c3)OCO4)c2C)nc1C
-9% | CCc1ccc(NC(=O)c2sc3nc(C)c(Cl)c(C)c3c2NC(=O)c2ccccc2)cc1
-1% | Cc1ccc(NC(=O)CSc2nc3c(oc4ccccc43)c(=O)n2Cc2ccco2)cc1
-4% | CCCn1c(CCC(=O)Nc2ccc(OCC)cc2)nc2cccnc21
-17% | Cc1ccc(NC(=O)CSc2nc(-c3cccs3)nc3cc(=O)[nH]n23)cc1C
-2% | CCCN(CCC)C(=O)Cn1c(=O)n(-c2ccc(C)c(C)c2)c(=O)c2c3c(sc21)CCCCC3
-11% | Cc1cc(=O)[nH]c2nnc(SCc3cccc(F)c3)n12
2% | CC(=O)Nc1ccccc1OCc1cc(=O)n2c3c(sc2n1)CCCC3
-1% | O=C(CSc1nccn1Cc1ccc(F)cc1)NCc1ccco1
4% | Fc1ccccc1N1CCN(c2c3c(nc4nncn24)CCC3)CC1
-2% | CCN1CCN(c2ncc3c(n2)CCN(Cc2ccc(OC)c(OC)c2)C3)CC1
0% | CN1CCN(C(=O)C(=O)Nc2c3c(nn2-c2ccc(Cl)cc2)CSC3)CC1
2% | COCCCNC(=O)CSc1nc2cc(OC)c(OC)cc2c2nc(-c3ccccc3)nn12
-21% | Cc1cc(Nc2ccccc2C)n2nc(Cc3ccc(Cl)cc3)nc2n1
22% | O=C(CSc1nc(-c2ccc(F)cc2)[nH]c1-c1ccccc1)NCC1CCCO1 (stereo not given)
-1% | COc1ccc(-n2cc(C(=O)OCc3ccc(F)c(F)c3)c3ccccc3c2=O)cc1
-10% | O=c1cc(-c2ccccc2)n2c(SCc3ccc([N+](=O)[O-])cc3)nnc2[nH]1
-2% | Cc1ccc2c(c1)c(=O)c1ccccc1n2CCCC(=O)Nc1ccc(Cl)cc1C

A few values from the list.
C#CC(C)(CC)NC(=O)Cn1nnc(-c2ccc(OCc3ccccc3F)cc2)n1 (stereo not given) @ miR-21 reporter = -3%
O=C(NCCc1ccccc1)c1nnc(Cc2cccc(F)c2)o1 @ miR-21 reporter = -5%
CC(=O)Nc1ccccc1OCc1cc(=O)n2c3c(sc2n1)CCCC3 @ miR-21 reporter = 2%
CCOC(=O)c1cc(C)n(CC2CCC(C(=O)Nc3ccc(OC)c(OC)c3)CC2)c1C (stereo not given) @ miR-21 reporter = -6%
CSc1ccc(/C=C/c2nc3ccccc3n2S(=O)(=O)c2ccc(F)c(C)c2)cc1 @ miR-21 reporter = 27%

Grouped by structure: the entries above containing a cyano group.
miR-21 reporter | SMILES
0% | Cc1cc(Oc2nc3ccccn3c(=O)c2/C=C(\C#N)c2nc3ccccc3s2)ccc1Cl
7% | CCOc1ccc(NC(=O)CSc2nc(-c3cccs3)cc(C(F)(F)F)c2C#N)cc1
? | CC(C)c1ccc(/C=C(\C#N)c2nc(-c3ccc(O)cc3)cs2)cc1

Further compounds.
miR-21 reporter | SMILES
2% | Cc1cc(Nc2ccc(C)c(C)c2)n2cnnc2n1
-2% | Cc1ccc(C)c(NC(=O)c2cc(S(=O)(=O)N3CCN(c4cccc(Cl)c4)CC3)ccc2F)c1
-21% | COc1cc(OC)c(NC(=O)Nc2cccc(OCc3cc(=O)n4ccccc4n3)c2)cc1Cl
-1% | Cc1ccc(COC(=O)c2[nH]c3c(c2C)C(=O)CC(c2ccc(N(C)C)cc2)C3)cc1 (stereo not given)
6% | O=C(CCNS(=O)(=O)c1ccc2c(c1)CCN2C(=O)C1CC1)N1CCN(c2ccccc2F)CC1
3% | Cc1ccccc1NC(=O)CCc1c(C)nc2c(c1C)c(=O)n(C)c(=O)n2C
24% | COc1ccc(Cl)cc1NC(=O)CN(C)S(=O)(=O)c1ccc2c(c1)CCCN2C(C)=O
-2% | Cc1ccccc1N(C)S(=O)(=O)c1nnc(NC(=O)C(C)C)s1
? | CCOc1cc(CNCCSc2nnnn2C)cc(Cl)c1OCc1ccc(Cl)cc1
-1% | COCCCNC(=O)CSc1nc(-c2ccc(OC)cc2)[nH]c1-c1ccc(OC)cc1
5% | COc1ccc(C2=NC(C)(C)N(CC(=O)Nc3ccc(F)c(F)c3)C2=O)cc1
14% | CCc1ccc(S(=O)(=O)N(C(=O)Oc2ccccc2)c2ccc3oc(C)c(C(=O)OC)c3c2)cc1
